# Assay outcomes (PubChem BioAssay)
# PINK1 modulator: modulators of PINK1 expression | PINK1 immunofluorescence, high-content cytometry, 24 h | Potency, µM (top dose mostly 76.6 µM), inactives show top-dose activation (PINK1 increase), actives largely listed as activators | 410,000 tested, 0.2% active | AID 624263; active = well fitted activation curve with a large enough effect; inconclusive = small, poorly fitted or top-dose-only effect; inactive = flat fitted curve, though single readings scatter; cell line not stated here;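 further: potency means the concentration at half of the fitted maximal effect; % of control where 0% means no effect; nearly all actives have a fitted effect of over 65% in size; a mitochondrial uncoupler was the plate control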
#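 A stable cell line was treated with compounds at 5 concentrations for 24 hours, with CCCP as control. PINK1 levels and mitochondrial localization were measured by immunofluorescence with mitochondrial, cell and nuclear markers after fixation, read by laser-scanning cytometry.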
# D2 PAM: positive allosteric modulators of human D2 dopamine receptor | P14416 | DiscoveRx D2 beta-arrestin cells, luminescence, 90 min; 100% = 57 uM dopamine signal | 360,000 tested, 0.23% active | AID 624464 | potentiation, % (test concentration not listed); active = potentiation of 50% or more; inconclusive = 30% to 50%; inactive = 30% or less;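 further: compound concentration not given in the record; tested on top of an EC20 dose of dopamine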
#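 D2 cells co-treated with compound plus 50 nM dopamine (EC20) for 90 min at 37 deg C to detect potentiation. Beta-arrestin recruitment was read as enzyme-fragment luminescence after 1 h at ambient temperature. Full response was set by 57 uM dopamine.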
# Sfp inh: inhibitors of Bacillus subtilis Sfp phosphopantetheinyl transferase. Q9F4F7. 310,000 tested, 3.5% active. Biochemical Sfp PPTase activity, qHTS. Potency, µM, for the others: max response, negative = inhibition, actives largely listed as inhibitors; active means well fitted inhibition curve with a large enough effect; inconclusive means small, poorly fitted or top-dose-only effect, or another doubt; inactive means no such curve, though single readings can be large or run the other way;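 further: the enzyme is Sfp with the accession as filed and its product quenches rhodamine fluorescence; potency means the concentration at half of the fitted maximal effect; 0% = enzyme reaction without inhibitor and -100% = no enzyme wells; top concentration of the series not given in the record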
#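 Step 1, compound plus 15 nM Sfp-PPTase, 15 min, room temperature. Step 2, add rhodamine-CoA (5 uM) and BHQ-2-YbbR (12.5 uM). Step 3, read 525/598 nm fluorescence at 0 and 30 min.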
# CtBP-E1A blk: inhibitors of CtBP/E1A interaction; AlphaScreen GST-E1A/His-CtBP binding, 1536-well; hits give low values; control for the full effect not named in the record; activity change, % (no concentration beside the values); 340,000 tested, 0.49% active; AID 651724; in the data active means activity change below about -65%; inconclusive means about -30% to -65%; inactive means above about -30%; further: on the % scale 0 is the no-effect control and ±100 the full control effect; compound concentration not given in the record
#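 GST-E1A and His-tagged CtBP (125 nM each as 5X stock) were preincubated with pin-transferred compound for 2 h at 37 °C in the dark, then glutathione donor and nickel acceptor beads were added for 1 h before AlphaScreen reading.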
# D2 agonist: activates the human D2 dopamine receptor | activation, % (concentration not given with the values) | 360,000 tested, 0.084% active | DiscoveRx PathHunter D2 beta-arrestin, luminescence, 90 min; 100% = 57 uM dopamine signal | P14416; in the data active = activation above about 40%; inconclusive = about 15% to 40%; inactive = below about 15%; further: compound concentration not given in the record; the text of the record calls up to 30% inactive
#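 Agonist mode: compounds alone added to overnight-plated D2 PathHunter cells for 90 min at 37 C, with 57 uM final dopamine (EC100) defining full response. Beta-arrestin recruitment detected by chemiluminescent reagent, read after 1 h at ambient temperature.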
# TRPV1 potentiator: enhances activation of the human vanilloid receptor TRPV1. 320,000 tested, 0.02% active. TRPV1-expressing cells, Fluo-8 calcium influx, capsaicin EC20 potentiation; host cell line not named in the record; control for the full effect not named in the record. potentiation, % at 8.33 µM; active means potentiation above 80%; inconclusive means 30% to 80%; inactive means below 30%; further: 0% is about no effect
#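 Cells expressing TRPV1 were dye-loaded with Fluo-8 and read kinetically: 10 s baseline, 3 min after compound (agonist portion), then 2 min after EC20 capsaicin (allosteric enhancer portion). Calcium-bound dye fluorescence at 480/520 nm.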
# Six1-Eya2 blk: blocks human Six1 binding to Eya2 | Q15475+O00167 | AlphaScreen GST-Six1/His-Eya2 binding, biochemical; hits give low values; control for the full effect not named in the record | activity change, % (no concentration beside the values) | 360,000 tested, 0.56% active | AID 651725; in the data active = activity change below about -65%; inconclusive = about -30% to -65%; inactive = above about -30%; further: on the % scale 0 is the no-effect control and ±100 the full control effect; compound concentration not given in the record
# Target sequence (O00167 whole entry, looked up): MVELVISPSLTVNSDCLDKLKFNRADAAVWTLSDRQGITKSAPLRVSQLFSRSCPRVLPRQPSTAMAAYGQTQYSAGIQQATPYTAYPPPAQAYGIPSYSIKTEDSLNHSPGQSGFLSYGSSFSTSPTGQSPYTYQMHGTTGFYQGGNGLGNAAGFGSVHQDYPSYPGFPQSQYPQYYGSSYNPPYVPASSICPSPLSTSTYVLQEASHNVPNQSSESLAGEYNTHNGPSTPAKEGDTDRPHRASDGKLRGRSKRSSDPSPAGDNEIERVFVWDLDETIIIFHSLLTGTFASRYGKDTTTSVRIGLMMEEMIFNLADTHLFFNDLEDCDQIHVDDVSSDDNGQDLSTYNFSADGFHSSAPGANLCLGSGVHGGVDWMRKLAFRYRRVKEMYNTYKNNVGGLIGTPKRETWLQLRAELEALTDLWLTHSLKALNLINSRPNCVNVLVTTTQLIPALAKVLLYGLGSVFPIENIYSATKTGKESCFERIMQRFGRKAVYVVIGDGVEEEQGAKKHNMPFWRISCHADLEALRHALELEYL
# Target sequence (Q15475 whole entry, looked up): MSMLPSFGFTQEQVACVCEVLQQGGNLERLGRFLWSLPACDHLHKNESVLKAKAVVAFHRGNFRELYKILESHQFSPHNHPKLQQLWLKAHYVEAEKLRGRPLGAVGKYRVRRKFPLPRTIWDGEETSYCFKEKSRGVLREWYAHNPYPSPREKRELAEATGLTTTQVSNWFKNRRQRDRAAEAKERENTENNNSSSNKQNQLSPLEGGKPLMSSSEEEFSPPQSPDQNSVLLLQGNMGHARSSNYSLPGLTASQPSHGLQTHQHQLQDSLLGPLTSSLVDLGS
#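 Homogeneous AlphaScreen proximity assay pairing GST-Six1 with His-tagged Eya2 (added as 5X mix: 250 nM and 500 nM) in 50 mM Tris pH 8.0, 300 mM NaCl, 1 mM TCEP. Glutathione donor and nickel acceptor beads; 1 h, 37 °C, dark.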
# The depositor's hits bear a star; ? = inconclusive; . = no result given; [ ] = another dose, or the depositor's remark.
SMILES,PINK1 modulator,D2 PAM,Sfp inh,CtBP-E1A blk,D2 agonist,TRPV1 potentiator,Six1-Eya2 blk
O=C(Nc1ccccc1-c1nnc(SCc2ccccc2)o1)c1ccccc1,22%[38.3 µM],-19,-2%,25,-5.3,.,22
CN(C)c1ccc(/C=N/Nc2nc3ccccc3o2)cc1,?,-3,6%,-1,?,5,-3
COc1ccc(C(=O)N2CCN(S(=O)(=O)c3ccc(C)cc3)CC2)cc1S(=O)(=O)N1CCOCC1,0.9%,7,18%,.,1.1,-9,5
O=c1oc2cc(OCc3c(F)c(F)c(F)c(F)c3F)ccc2cc1-c1ccccn1,11%,-16,15%,15,-4.7,5,6
CNC(=S)Nc1ccc2nc(C)c(C)nc2c1,-2.2%,-11,?,6,-3.7,17,-1
S=C(Nc1ccc2nc(-c3ccccn3)c(-c3ccccn3)nc2c1)N1CCCCC1,1.3%,29,0%,6,0.9,-8,17
O=C(CN1CCc2ccccc2C1)Nc1cc(S(=O)(=O)N2CCOCC2)ccc1N1CCOCC1,4.4%,-10,5%,-11,-2.1,10,0
COC(=O)C1=C(O)/C(=C\c2cc(C)n(-c3ccc(F)cc3)c2C)N=C1C,1.7%,-13,?,2,-0.9,-21,0
CC1(C)c2ccccc2-c2nc3ccccc3cc2C1O (stereo not given),9.3%,-2,7%,5,6.2,18,3
CC12CCC(=O)C=C1CCC1C2C(O)CC2(C)C(c3csc(N)n3)CCC12 (stereo not given),-3.2%,-3,.,-3,-6.9,.,4
COc1ccc(C2(O)C(=O)Nc3ccc(C)cc32)cc1OC (stereo not given),-1.1%,-3,14%,4,-5.1,-4,-13
CCC[C@H]1CN(c2ccc(Br)cc2)C(=O)[C@@H]1CC(=O)Nc1ccccc1,2.5%,1,.,-1,-6.0,.,1
COc1ccc(CNC(N)=O)cc1,-0.1%,-1,.,-7,-0.9,.,6
O=C1c2ccccc2C2(c3cc(C(F)(F)F)cc(C(F)(F)F)c3)NCCN12 (stereo not given),4.2%,1,19%,-6,5.3,-15,-4
Cn1c2c(c(=O)n(C)c1=O)[C@@H]1c3c(ccc4ccccc34)OC[C@@H]1CO2,12%,1,17%,-8,-1.8,-1,3
Cn1cccc1C(=O)OCc1ccc(C(C)(C)C)cc1,?,-9,9%,-6,-2.7,7,-6
COc1cc(OC)cc(-c2sc3ccc(OC)cc3c2-c2ccc(O)cc2)c1,-0.7%,-7,.,.,0.1,.,1
COc1cc(C(=O)NCCSc2ccc(Br)cc2)cc(OC)c1OC,4.3%,-5,10%,0,-0.7,-2,0
Cc1ccc(S(=O)(=O)NC(=O)c2cc(C)n(CC(c3ccccc3)N(C)C)c2C)cc1 (stereo not given),-1.4%,2,23%,.,7.1,11,7
CCOc1ccc(OCCSc2nc(-c3ccccc3)cc(=O)[nH]2)cc1,-0.8%,-9,6%,4,-0.5,0,-10
O=C(CN1C(=O)C2CC=CCC2C1=O)Nc1ccc(S(=O)(=O)N2CCOCC2)cc1 (stereo not given),0.7%,0,15%,1,-2.1,10,4
COC(=O)c1ccc(NC(=O)NCCCl)cc1,1.7%,-3,9%,1,0.6,-4,1
CC(=O)Nc1cccc(-c2nnc(-c3ccccc3)o2)c1,0.4%,-2,11%,2,-0.5,-3,-3
Cc1[nH]n(-c2ccccc2)c(=O)c1C=Nc1ccc(S(=O)(=O)Nc2nccs2)cc1,-1.9%,-5,15%,?,-0.6,1,?
CCCC(=O)Nc1cccc(-c2cn3ccsc3n2)c1,-0.9%,-6,-12%,-3,-1.1,-12,-10
Cn1ncc(Cl)c1C(=O)N1CCN(c2ccccc2)CC1,-0.6%,-32,-2%,-5,4.0,2,-19
O=C1CC(c2ccccc2)c2cc(O)ccc2O1 (stereo not given),.,-15,?,10,2.3,0,-1
Cc1ccccc1CS(=O)(=O)Cc1ccc(C(=O)NCC2CCCO2)o1 (stereo not given),5.5%,-10,13%,2,3.2,4,-3
O=C1CC(=C(c2ccccc2)c2ccccc2)C(=O)N1CCCN1CCN(c2cccc(Cl)c2)CC1,-0.4%,-20,-4%,-19,3.2,12,-20
CCCCOc1ccc(NC(=O)CSc2nnnn2C)cc1,-2.6%[38.3 µM],-1,11%,-8,1.7,3,-4
CCn1c(/N=C/c2ccccc2O)nc2ccccc21,-1.5%,-6,14%,-17,1.5,?,17
O=C(NCc1ccccc1)c1ccc(Cl)cc1[N+](=O)[O-],-3.2%,-9,9%,3,-1.0,.,-1
O=C(NCC1COc2ccccc2O1)c1ccc(Cl)c(S(=O)(=O)N2CCOCC2)c1 (stereo not given),0.1%,-1,.,0,-1.7,-15,11
CC1=C(C(=O)Nc2ccc(C)cc2C)C(c2ccc([N+](=O)[O-])cc2)n2ncnc2N1 (stereo not given),1.7%,-13,?,-3,-3.5,6,2
CC(=O)Nc1cccc(-c2cc(NC(C)=O)c3ncc(-c4cccc(C(F)(F)F)c4)n3c2)c1,1.5%,-11,.,-18,-3.7,.,-18
O=C(c1ccc(Oc2ccc(C(F)(F)F)cc2[N+](=O)[O-])cc1)N1CCOCC1,-1.7%,-11,?,-2,1.9,-13,-11
OC(CSc1c(Cl)cccc1Cl)CN1CCN(c2ccc(F)cc2)CC1 (stereo not given),15%[38.3 µM],-14,-8%,1,-1.4,9,-4
CCN(CC)CCNC(=O)c1cc(Sc2nnc(C)s2)nc2ccccc12,1.9%,-15,2%,12,-4.1,-2,5
CC(C)(C)c1ccc(CS(=O)(=O)CC2(O)CCN(C(=O)c3cccc(C(F)(F)F)c3)CC2)cc1,.,-10,17%,-6,-1.1,-8,2
O=C(COC(=O)CCC1CCCCC1)Nc1ccc(OC(F)F)cc1,0.6%,9,20%,11,-0.5,-19,12
CCCOc1ccc(N2C(=O)CC(NCC(=O)OCC)C2=O)cc1 (stereo not given),-2.5%,-7,.,-15,-3.1,.,-1
Cc1ccc2nc(C3CCCCC3)c(CC(C)(C)C)n2c1,2.5%,-9,.,-23,-5.9,.,0
Cc1cccc(OCCOC(=O)c2c(-c3ccccc3)noc2C)c1,5.4%,-4,10%,104,-2.2,-3,56
COc1ccc(N2C(=O)CCC(C(=O)c3ccccc3)=C2C)cc1,-1.2%[38.3 µM],-3,5%,2,1.0,-11,-2
CN(C)CCNC(=O)c1ccc(-c2nn(C)c(=O)c3ccccc23)cc1,-1.1%,-35,5%,-11,0.1,6,2
CCCN(Cc1nnc(-c2ccccc2Cl)o1)C(=O)c1oc2ccccc2c1C,-0.8%,-1,.,-3,-7.4,-6,-4
NNc1nc(-c2ccccc2)cc(-c2ccc(Br)cc2)n1,-0.1%,-17,-7%,-6,-14,-4,2
OCCc1ccc(O)c(-n2nc3ccccc3n2)c1,-1.7%,-7,7%,-2,0.7,-1,-4

# Taken from the results shown, 4 compounds:
SMILES,PINK1 modulator,D2 PAM,Sfp inh,CtBP-E1A blk,D2 agonist,TRPV1 potentiator,Six1-Eya2 blk
CN(C)CCNC(=O)c1ccc(-c2nn(C)c(=O)c3ccccc23)cc1,-1.1%,-35,5%,-11,0.1,6,2
CCCN(Cc1nnc(-c2ccccc2Cl)o1)C(=O)c1oc2ccccc2c1C,-0.8%,-1,.,-3,-7.4,-6,-4
NNc1nc(-c2ccccc2)cc(-c2ccc(Br)cc2)n1,-0.1%,-17,-7%,-6,-14,-4,2
OCCc1ccc(O)c(-n2nc3ccccc3n2)c1,-1.7%,-7,7%,-2,0.7,-1,-4

# Further entries:
SMILES,PINK1 modulator,D2 PAM,Sfp inh,CtBP-E1A blk,D2 agonist,TRPV1 potentiator,Six1-Eya2 blk
COCCNC(=O)CSc1nccn1Cc1ccc2c(c1)OCO2,2.5%,-2,19%,5,1.0,-1,12
COCC(=O)Nc1c(C(=O)N2CCCC2)oc2ccccc12,1.2%,-3,10%,-24,-2.3,20,2
Cc1c2ccncc2cc2c1[nH]c1ccccc12,-4.2%,-8,.,2,6.9,.,-6
COc1ccccc1NC(=O)Nc1nc(CC(=O)Nc2ccc(N(C)C)cc2)cs1,-0.7%,28,.,?,0.7,5,?
Cc1ccc(C(=O)Nc2ccc(CN3CCCCC3)cc2)c(C)c1,-0.7%,-19,11%,1,-2.6,7,-5
O=C(NCc1ccccc1)c1ccc(-c2ccc(F)c(F)c2)c2ccoc12,2.1%,-6,.,-6,-3.5,.,-2
NC(=O)CC(NC(=O)Cc1ccc(Cl)cc1)c1ccc(NCCOc2ccccc2)c([N+](=O)[O-])c1 (stereo not given),5.7%,-13,0%,-4,-3.6,1,-3
COC(=O)CC1C(=O)NCCN1C(=O)c1ccc([N+](=O)[O-])cc1 (stereo not given),3.6%,-4,9%,2,5.5,-33,6
CCCCCCCCCCCCN1C(=O)CSC1c1cccnc1 (stereo not given),0.3%,-17,-3%,17,8.4,-9,12
COc1ccc2oc(C(=O)Nc3nc(C)cs3)c(C)c2c1,-0.8%,-1,.,.,-0.1,2,0
COc1ccc(CCn2c(=N)c(C(=O)NCc3ccco3)cc3c(=O)n4cccc(C)c4nc32)cc1,5.3%,-7,-13%,-82*,-2.5,-8,-69*
Cc1ccc(NC(=O)CSCC(=O)NNC(=O)c2ccoc2C)cc1,-1.6%,7,.,-4,-9.0,5,-3
C[C@H](NS(=O)(=O)c1ccc(Cl)cc1)C(=O)OCC(=O)NCCc1ccc(S(N)(=O)=O)cc1,2.5%,2,.,6,-1.0,.,5
O=C(CCC(=O)c1ccc(Br)cc1)Nc1ccc(F)cc1,1.9%,1,16%,6,2.2,-12,8
Cn1c(Cn2c(=O)sc3ccccc32)nnc1SCC(=O)N1CCN(c2ccccc2)CC1,-2.6%,-2,9%,1,-1.4,21,-6
Cc1cc(/C=C2/NC(=O)N(Cc3ccccc3F)C2=O)c(C)n1C,0.1%,2,-1%,-6,-0.8,6,-2
COC(=O)CSc1ncnc2c(C)csc12,-1.1%,-1,10%,8,6.9,-12,-1
Cn1cc(-c2coc3c(C(=O)NCc4cccc(Cl)c4)cccc23)cn1,-0.2%,-9,.,-30,5.2,.,-4
COc1c(N)c2c(c([N+](=O)[O-])c1OC)C(=O)OC2,0.2%,1,.,-1,0.2,.,-8
O=C(COc1cc2oc(=O)c3c(c2cc1Cl)CCC3)NCCCn1ccnc1,-0.6%,-8,11%,.,0.2,4,?
CC(C)c1ccc(NC(=O)[C@H](Cc2c[nH]c3ccccc23)NC(=O)[C@@H]2Cc3ccccc3CN2)cc1,0.5%,-18,9%,-9,4.2,-13,-9
